# NS1 function inh – blocks influenza NS1 protein function; 270,000 tested, 0.4% active; Potency, µM (highest dose often 46.1 µM), without a hit: at the top dose activity, positive = more growth; S. cerevisiae slowed by influenza A NS1, growth recovery by OD600; also: actives are rising curves; nearly all actives have a fitted effect of over 50% in size
#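 Compounds were scored for reversing the slow growth caused by influenza A NS1 in S. cerevisiae, measured by optical density at 600 nm. Assay medium contained 2% galactose at pH 6.0; NS1-free yeast of the same strain were the positive control.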
# SARS PLP yeast – inhibitors of SARS-CoV papain-like protease in yeast. S. cerevisiae expressing SARS-CoV PLpro, growth rescue; control for the full effect not named in the record. Potency, µM (series often up to 32.9 µM), without a hit: at the highest dose activity, positive = growth rescue. 330,000 tested, 0.19% active; also: 0% is about no effect; nearly all actives have a fitted effect of over 55% in size; growth read by luminescence after 48 h
# Cruzain inh Det – cruzain (T. cruzi) inhibition with detergent; P25779; purified cruzain, Z-FR-AMC fluorescence, 0.01% Triton; Potency, µM, for inactives: max response, negative = inhibition, hits mostly inhibitors; 200,000 tested, 0.43% active; active = well fitted curve in the direction sought with a large enough effect; inconclusive = small, poorly fitted or top-dose-only effect, or another doubt; inactive = no such curve, though single readings can be large; an effect the other way counts as inactive or inconclusive;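 also: plate controls were neutral wells for no effect and buffer without enzyme for full effect; nearly all actives have a fitted effect of over 40% in size; top concentration of the series not given in the record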
# Target sequence (P25779 123-467 limits assumed): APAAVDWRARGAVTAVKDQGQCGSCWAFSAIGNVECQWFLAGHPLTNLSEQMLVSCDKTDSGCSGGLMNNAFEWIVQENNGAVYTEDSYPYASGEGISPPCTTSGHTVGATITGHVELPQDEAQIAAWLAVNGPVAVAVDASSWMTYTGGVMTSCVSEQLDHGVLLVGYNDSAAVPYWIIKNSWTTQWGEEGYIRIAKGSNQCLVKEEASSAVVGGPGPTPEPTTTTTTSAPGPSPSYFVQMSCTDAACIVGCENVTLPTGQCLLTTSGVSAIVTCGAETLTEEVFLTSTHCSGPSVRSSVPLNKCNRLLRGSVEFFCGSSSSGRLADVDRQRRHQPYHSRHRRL
#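 Detergent-containing arm of a paired screen for aggregation-based inhibition: 0.01% Triton X-100 present. Cruzain at 1.5 nM cleaved 2 uM Z-FR-AMC at pH 5.5 with 5 mM DTT; AMC fluorescence gain over 60 s measured activity.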
# Cruzain inh noDet – cruzain (T. cruzi) inhibition without detergent; P25779; purified cruzain, Z-FR-AMC fluorescence, no detergent; Potency, µM, for the others: max response, negative = inhibition, most hits filed as inhibitors; 200,000 tested, 2.3% active; AID 1476; active = well fitted curve in the direction sought with a large enough effect; inconclusive = small, poorly fitted or top-dose-only effect, or another doubt; inactive = no such curve, though single readings can be large; an effect the other way counts as inactive or inconclusive;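 also: plate controls were enzyme without inhibitor for no effect and buffer without enzyme for full effect; nearly all actives have a fitted effect of over 40% in size; top concentration of the series not given in the record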
#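 Purified cruzain at 1.5 nM, pre-incubated 15 min with compound at room temperature in 100 mM sodium acetate pH 5.5, 5 mM DTT, 0.00005% Triton X-100. Reaction started with 2 uM Z-FR-AMC; AMC fluorescence increase over 60 s gives rate.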
# MARV entry inh – blocks Marburg virus binding to or entry into cells; Marburg virus pseudotyped entry inhibition, cell reporter; control for the full effect not named in the record; about a third of the inactives were read at about 46 µM; Potency, µM (titrated, usually from 37.8 µM), for inactives: at the top dose activity change, negative = inhibition, usual class: inhibitors; 300,000 tested, 1.8% active; AID 540276; active = well fitted inhibition curve with a large enough effect; inconclusive = small, poorly fitted or top-dose-only effect, or effect the other way; inactive = flat fitted curve, though single readings scatter; tested in HEK293 cells; about a fifth of its hits are not listed in these tables; also: % is scaled to controls: 0 for no effect and ±100 for the full control effect; luciferase read-out
# Lassa entry inh – inhibitors of Lassa virus binding or cell entry; Lassa virus pseudotype entry inhibition, cell reporter; control for the full effect not named in the record; Potency, µM (top dose mostly 37.9 µM), without a hit: top-dose activity change, negative = inhibition, most hits filed as inhibitors; 300,000 tested, 1.2% active; active means well fitted inhibition curve with a large enough effect; inconclusive means small, poorly fitted or top-dose-only effect, or effect the other way; inactive means flat fitted curve, though single readings scatter; tested in HEK293 cells; also: % is scaled to controls: 0 for no effect and ±100 for the full control effect; nearly all actives have a fitted effect of over 50% in size; luciferase read-out
# 2A StopGo – FMDV 2A StopGo reporter, luciferase signal. 410,000 tested, 1.2% active. AID 1159524. human cells with a luciferase reporter of 2A StopGo recoding; control for the full effect not named in the record. Potency, µM (top dose mostly 57.9 µM), for the others: at the highest dose signal change, negative = less light; active = well fitted falling curve with a large enough effect; inconclusive = small, poorly fitted or top-dose-only effect; inactive = no such curve, though single readings can be large or run the other way; tested in HEK293T cells; also: % is scaled to controls: 0 for no effect and ±100 for the full control effect; nearly all actives have a fitted effect of over 45% in size; luciferase light after 4 h
# RE007 growth inh – less growth of the S. pombe RE007 Vpr strain | S. pombe RE007 Vpr strain, BacTiter-Glo ATP luminescence, 24 h; control for the full effect not named in the record | Potency, µM (titrated, usually from 92.2 µM), without a hit: at the highest dose activity change, negative = less growth | 360,000 tested, 0.21% active | AID 651644; active = well fitted falling curve with a large enough effect; inconclusive = small, poorly fitted or top-dose-only effect; inactive = no such curve, though single readings can be large or run the other way;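 also: % is scaled to controls: 0 for no effect and ±100 for the full control effect; nearly all actives have a fitted effect of over 50% in size; the assay follows cell death caused by Vpr and the record does not say whether a fall means rescue or toxicity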
#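 Fission yeast RE007 carrying one integrated HIV-1 vpr copy, seeded at OD 0.01 in PMG+AL medium with 23 nL pinned compound. Grown 24 h at 30 degrees; viability read by BacTiter-Glo luminescence after 5 min.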
# Starred values were filed as active, the others as inactive; u = inconclusive; x = not tested or not shown; & = joins results of further samples; [ ] = remark or other dose. Unless noted, calls follow the shape of the dose curve; as a rule, active means well fitted rising curve with a large enough effect; inconclusive means small, poorly fitted or top-dose-only effect; inactive means no such curve, though single readings can be large or run the other way. Potency is read from the fitted curve at half-maximal effect.
# The line under a structure holds: Cruzain inh noDet	2A StopGo	Lassa entry inh	NS1 function inh	SARS PLP yeast	Cruzain inh Det	MARV entry inh	RE007 growth inh
> O=C(CN1CCN(c2ccc(F)cc2)CC1)NCc1cccs1
  x	22.4%	u	x	2.2%	x	-7.4%	0.3%
> Cc1nn(-c2ccccc2)c(Cl)c1C1C(C#N)=C(N)Oc2n[nH]c(C)c21 (stereo not given)
  -3.1%	0.0%	-16.0%	0.9%	7.2%	-1.8%	26.6%	-5.1%
> O=C(NC(=S)Nc1ccc(S(=O)(=O)N2CCCC2)cc1)C1CCC1
  3.0%	8.0%	-10.2%	1.3%	-4.4%	-2.4%	25.1%	-11.6%
> Cc1csc2c(N3CCN(C(=O)Nc4ccccc4)CC3)ncnc12
  x	22.4µM*	-6.7%	-11.4%	-2.8%	x	u	4.6%
> CCC(C(=O)NC(CC(=O)O)c1ccc(Cl)cc1)c1ccccc1 (stereo not given)
  x	0.0%	x	7.8%	0.5%	x	x	-4.7%
> O=C(COC(=O)c1cc(=O)c2ccccc2o1)NCc1ccccc1
  x	-11.7%	10.6%	x	-0.5%	x	23.5%[46.1 µM]	-18.9%
> COc1ccc(-c2nc3nc(C)cc(Nc4ccc(C(C)=O)cc4)n3n2)cc1
  7.1%	-5.5%	17.4%[46.1 µM]	x	x	-2.4%	u	x
> COc1ccc2c(c1OC)C(=O)N1C2SC(C)(C)[C@H]1C(=O)NCCCOC(C)C (stereo not given in full)
  x	-3.3%	10.0%[46.1 µM]	3.0%	-1.8%	x	-8.1%[46.1 µM]	-1.5%
> Cc1ccc(C(=O)Oc2ccc(C(=O)COC(=O)c3cnccn3)cc2)cc1
  -9.0%	17.5%	12.3%	-4.0%	5.3%	3.5%	u	6.0%
> CCc1cccc(CC)c1NC(=O)CN1C2CCCC1CC(NC(=O)Nc1cccc(OC)c1)C2 (stereo not given)
  x	u	-24.2%	-7.4%	0.7%	x	u	4.8%
> O=C(NCc1ccco1)c1cccc(C(F)(F)F)c1
  x	-6.3%	-11.4%[46.1 µM]	-0.8%	2.0%	x	7.2%[46.1 µM]	7.6%
> O=C(CSc1nc(-c2ccccc2)nc2c1CCCC2)c1ccc(Cl)cc1
  2.1%	-15.6%	2.2%[46.1 µM]	x	x	-1.6%	-2.2%[46.1 µM]	x
> O=C(c1ccc2c(c1)OCCO2)N1CCCCC1
  -5.4%	54.2%[activator]	u	0.2%&3.1%	-0.7%	-2.2%	18.3%&6.7%&2.3%&2.3%	25.1%
> O=C(/C=C/c1cccc([N+](=O)[O-])c1)NC1CC2CCC1C2 (stereo not given)
  -10.4%	10.0%	-17.8%	6.5%	-1.0%	-1.4%	28.3%	0.9%
> Cc1ccccc1-c1noc(-c2cccnc2N2CCN(c3ccccc3)CC2)n1
  10.5%	0.0%	-0.4%[46.1 µM]	x	x	-2.4%	-5.3%[46.1 µM]	x
> CC[N+]1(CC)CC2=Cc3c(ccc4ccccc34)CC2C1 (stereo not given)
  -6.1%	-26.0%	10.2%	3.8%	3.6%	-4.2%	6.0%	-25.8%
> COc1cccc(CNC(=O)CSc2n[nH]c(-c3ccccc3Cl)n2)c1
  -13.0%	-29.1%	-18.8%[46.1 µM]	x	x	2.6%	x	x
> CCOc1ccc(OCC)c(NC(=O)c2cc(CN3CCOCC3)on2)c1
  -1.3%	-15.0%	-11.6%[46.1 µM]	x	x	-1.0%	x	x
> CCOC(=O)c1ccc(NC(=S)N2CCCC2c2ccc(OC)c(OC)c2)cc1 (stereo not given)
  x	u	0.2%[46.1 µM]	x	-2.3%	x	4.1%[46.1 µM]	-15.2%
> Nc1nonc1-c1noc(-c2ccc(Br)o2)n1
  -15.7%	32.0%[activator]	1.6%	-18.4%	5.6%	-2.7%	12.8%	-3.1%
> CC(C)(C)c1ccccc1OCCOCCSc1ncccn1
  7.3%	u	-27.3%	-0.8%	-26.8%	-3.9%	u	1.0%
> CCc1noc(C)c1C(=O)NC1CCCc2c1cnn2-c1cc(C)cc(C)c1 (stereo not given)
  x	7.4%	x	-5.6%	-5.5%	x	x	9.2%
> Cc1occc1C(=O)Nc1c(Cl)cccc1Cl
  x	9.1%	14.1%[46.1 µM]	23.4%	25.6%	x	-1.3%[46.1 µM]	1.6%
> NC(=O)c1nn(-c2ccccc2)nc1NC(=O)CSc1nnnn1-c1ccc(Cl)cc1
  -11.0%	-28.2%	25.3%	2.6%	-23.3%	-6.1%	23.3%	7.7%
> O=C(NCc1ccc2c3c(cccc13)C(=O)N2)c1cccs1
  x	-9.6%	x	-4.5%	0.4%	x	x	-11.8%
> CCC(C)NC(=O)c1ccc(C)c(NC(=O)C2=C(C)OCCS2)c1 (stereo not given)
  x	-14.8%	x	0.1%	0.7%	x	x	-1.7%
> COc1cc(CNCc2ccccn2)ccc1OCC(=O)NC(C)(C)C
  8.8%	-13.7%	-1.6%	-7.4%	-18.9%	4.9%	-18.2%	-18.3%
> CCOc1ccc(NC(=O)C2CCC(CNS(=O)(=O)c3ccc4c(c3)CCCC(=O)N4)CC2)cc1 (stereo not given)
  9.2%	u	28.6%[46.1 µM]	x	x	0.8%	x	x
> O=C(CSc1ccccc1C(=O)O)c1ccc(Cl)cc1
  x	11.1%	-0.2%[46.1 µM]	-5.8%	0.8%	x	15.7%[46.1 µM]	5.9%
> Cc1nc2ccccc2c2c1CC(C)S2 (stereo not given)
  x	-6.9%	x	-6.5%	-1.7%	x	x	-0.6%
> CCOC(=O)c1c(C)[nH]c(C)c1S(=O)(=O)N1CCCC(C(=O)Nc2cccc(C)n2)C1 (stereo not given)
  -0.8%	15.8%	5.1%[46.1 µM]	x	x	1.2%	x	x
> Cc1cc(C(F)(F)F)nc(SCC(=O)NC2=NC(=O)C(C)S2)n1 (stereo not given)
  u	x	5.8%	-3.1%	-1.2%	-5.6%	14.3%	100.3%
> COc1ccc(Oc2nc(-c3ccncc3)nc3ccccc23)cc1
  x	u	-11.4%	-1.9%	0.3%	x	u	8.1%
> CCCCn1c(/C=N/Nc2nc3ccccc3[nH]2)nc2ccccc21
  u	-19.4%	u	-41.8%	13.0%	-11.5%	u	11.4%
> CCN(CC)c1ccc(C2Nc3cccc4cccc(c34)N2)cc1
  x	12.5%	4.2%[46.1 µM]	15.2%	2.2%	x	3.6%[46.1 µM]	-16.6%
> Nc1c([N+](=O)[O-])cc(F)c(N2CCNCC2)c1Br
  -13.9%	0.0%	-0.6%	17.9%	0.3%	-9.6%	u	11.0%
> COc1ccc(CN2CCN(c3ccccn3)CC2)cc1OCc1ccccc1
  6.1%	u	4.2%	-8.5%	9.4%	7.9%	u	-5.7%
> CCOC(=O)C1=C(C)OC(N)=C(C#N)C1c1cc(F)ccc1F (stereo not given)
  -5.3%	x	2.7%	9.6%	0.2%	-3.2%	12.4%	2.8%
> Cc1ccccc1OCCCSc1nc2ccccc2[nH]1
  7.4%	u	u	-29.3%	-109.2%	-17.0%	u	u
> Cc1nn(Cc2c(F)cccc2Cl)c(C)c1[N+](=O)[O-]
  x	-1.0%	-7.4%	x	-7.4%	x	2.6%[46.1 µM]	29.2%
> CCOC(=O)c1nn(C)c2[nH]c(=O)n(C)c(=O)c12
  x	-3.5%	-8.0%[46.1 µM]	x	x	x	u	7.6%
> Cc1ccc(N2CCN(S(=O)(=O)c3c(C)[nH]c(=O)[nH]c3=O)CC2C)cc1 (stereo not given)
  -1.0%	-18.0%	16.2%[46.1 µM]	x	x	0.4%	x	x
> NS(=O)(=O)c1ccc(CCNC(=O)Nc2ccc(Cl)c(Cl)c2)cc1
  7.4%	25.1µM*	-28.3%	11.1%	16.7%	-13.0%	u	1.5%
> O=C(Nc1nnc(-c2ccc(Cl)cc2)o1)NC1CCCCC1
  25.1µM*	17.3%	15.1%	-0.2%	0.9%	8.7%	23.5%[46.1 µM]	-0.5%
> O=C(Nc1ccc(S(=O)(=O)N2CCCC2)cc1)C1CC(=O)N(c2ccc(F)cc2)C1 (stereo not given)
  x	-9.0%	u	-18.4%	-0.7%	x	-2.6%[46.1 µM]	-1.6%
> CCC(NC(=O)c1cc(COc2cc(C)c(Cl)c(C)c2)on1)c1ccncc1 (stereo not given)
  x	u	x	13.2%	-6.9%	x	x	6.4%
> CC(c1ccco1)N(C(=O)c1ccccc1NS(=O)(=O)c1ccc(Cl)c([N+](=O)[O-])c1)c1ccccn1 (stereo not given)
  u	0.4%	2.6%	-15.9%	-14.6%	-4.7%	2.6%	-13.2%
> O=C(COC(=O)/C=C/c1cccs1)NC1CCCCC1
  x	u	1.2%[46.1 µM]	-9.9%	-0.2%	x	1.7%[46.1 µM]	13.0%
> COc1ccc(CN2CCN(S(=O)(=O)c3ccc(C)cc3)CC2)cc1Br
  4.2%	-15.0%	u	-86.3%	-46.2%	-1.8%	u	-11.1%
> CC(C)c1onc(C(=O)N2C(C)CCCC2C)c1[N+](=O)[O-] (stereo not given)
  10.1%	-4.9%	-9.4%	1.8%	8.7%	-1.4%	-8.4%	29.3%
> Cn1cc([N+](=O)[O-])c(C(=O)Nc2ccc(Br)cn2)n1
  -10.3%	14.8%	14.2%	-9.1%	11.7%	4.0%	3.3%	-4.0%
> COCC(C)NC(=O)COc1nncc2ccccc12 (stereo not given)
  x	-2.3%	x	x	-0.4%	x	6.6%[46.1 µM]	-12.6%
> CC(C)(C)n1nnnc1C(c1cccs1)N1CCN(Cc2ccccc2)CC1 (stereo not given)
  -8.8%	x	2.8%	-5.4%	3.6%	5.0%	u	12.3%
> CC1CCc2c(sc(Nc3nc4c(F)cccc4s3)c2C(N)=O)C1 (stereo not given)
  -16.9%	u	-11.8%	11.7%	-38.3%	-3.4%	u	-1.3%
> Cc1nc2ccccc2c(=O)n1NC(=O)c1ccco1
  -10.6%	8.6%	-12.8%	7.8%	8.8%	0.8%	8.4%[46.1 µM]	3.9%

# From PubChem
